AID504770: growth inhibition of E. coli YBA685, primary screen, V. cholerae RctB inhibitors. z-score (test concentration not listed). 130,000 tested, 0.27% active. E. coli YBA685 rctB-dependent plasmid, OD600 growth, 3 h; stronger effect = lower value;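 active = z-score under -2 on both plates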;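 also: wells of about 30 µL received 100 nL stock; score is relative to mean and SD of the test wells; the first replicate is given; strong numbers were not always called active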
Ba CapD inh: Bacillus anthracis CapD inhibitors, primary screen, biochemical, fluorescence intensity. CapD gamma-glutamyltranspeptidase (Bacillus anthracis Ames Ancestor). purified CapD enzyme, fluorescence intensity read-out; stronger effect = lower value; some hits fall short of the stated cut. z-score (concentration not given with the values). 140,000 tested, 0.23% active. AID 492967, 2010;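 active = z-score under -4 in either of two replicates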;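 also: stock transfer was 100 nL into about 40 µL; score is relative to mean and spread of the plate; one replicate is shown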
* = called active by the depositor; . = not tested or not shown. An unsorted share of the library; overall some 0.37% were active at least once.

Sample of the layout (2 entries):
SMILES | AID504770 | Ba CapD inh
Cc1ccc(C)c(-n2nnnc2SCC(=O)Nc2cc(C(N)=O)cc(C(N)=O)c2)c1 | 0.55 | .
COC(=O)c1sccc1NC(=O)CC1(CC(=O)O)CCCC1 | 1.5 | .

All compounds of this part (from the top)
SMILES | AID504770 | Ba CapD inh
Cc1ccc(C)c(-n2nnnc2SCC(=O)Nc2cc(C(N)=O)cc(C(N)=O)c2)c1 | 0.55 | .
COC(=O)c1sccc1NC(=O)CC1(CC(=O)O)CCCC1 | 1.5 | .
COC(=O)c1ccc(CSc2ncnc3[nH]ncc23)cc1 | 1.5 | .
CC(C)CNC(=O)C1CC(c2ccccc2)=NO1 (stereo not given) | 0.95 | -0.73
NCCc1nc2ccc(Cl)cc2[nH]1 | -1.1 | .
CCn1c(-c2ccccc2)c(C(=O)CSc2nnc(-c3cccnc3)n2N)c2ccccc21 | 0 | .
CC(C)C(=O)Nc1nc(OC(=O)N(c2ccccc2)c2ccccc2)c2[nH]cnc2n1 | 1.5 | 0.34
CCOc1ccc(CCNC(=O)c2ccc(N3CCCC3=O)cc2)cc1OCC | 0.25 | -0.21
CCCCC(C)C(=O)NNC(=O)c1sc(SC)c2c1CCCC21SCCS1 (stereo not given) | . | 0.005
CCOC(=O)COc1ccccc1/C=N/O | -0.95 | 0.21
CC(C)(C)c1nn2cnnc2n(/N=C/c2ccccc2)c1=O | 2.1 | .
Cc1nc(S(=O)(=O)NC2CCCCC2)c(C#N)c(C)c1Cl | 0.05 | 0.54
COCCn1c(SCC(=O)c2ccc3c(c2)CCCN3S(C)(=O)=O)nc2ccccc21 | -0.45 | .
O=C(Oc1cc(=O)oc2c1c(=O)n1c3c(cccc23)CC1)c1ccccc1 | -1.4 | 9.5
O=C(c1ccccc1)N1CCC(O)(c2cccnc2)CC1 | -0.2 | .
CC(=O)Nc1ccc2nc(NC(=O)/C=C/c3ccccc3)sc2c1 | -0.45 | -1.2
O=C(NCc1ccccc1)C1CC(=O)N(c2ccccc2)C1 (stereo not given) | 2.1 | 0.26
CC(C)C(NC(=O)c1ccccc1)C(=O)N1CCCCCC1 (stereo not given) | -0.3 | 0.23
CCCCC1(C)OC(=O)C(=Cc2ccc(OCC)c(OC)c2)C(=O)O1 (stereo not given) | -0.1 | 0.49
COC(=O)C1=NNC2C(=O)N(c3cc(C)ccc3C)C(=O)C12 (stereo not given) | . | -0.3

3 entries out of the list, arranged by length of the SMILES, rising:
SMILES | AID504770 | Ba CapD inh
NCCc1nc2ccc(Cl)cc2[nH]1 | -1.1 | .
CCOC(=O)COc1ccccc1/C=N/O | -0.95 | 0.21
CC(C)C(NC(=O)c1ccccc1)C(=O)N1CCCCCC1 (stereo not given) | -0.3 | 0.23

More structures
SMILES | AID504770 | Ba CapD inh
O=C(CSc1nc2ccccc2n1S(=O)(=O)c1cccs1)Nc1ccccc1F | . | -0.18
CCc1ccc(/C=N/N2CCOCC2)cc1 | -1.8 | .
Cc1cccc(-n2cnc(C(=O)NNC(=O)Nc3ccc(Cl)cc3)c2)n1 | . | -0.4
O=c1c2cc3c(=O)n(Cc4cccs4)ccc3nc2ccn1Cc1cccs1 | 1.1 | 5
Cc1ccc(-n2cc3c(n2)CCN(c2ncc(C(F)(F)F)cc2Cl)C3)cc1 | . | 0.045
COc1ccc(CNCCN(C)C)cc1 | 0.85 | 0.17
COc1ccccc1N(Cc1c(C)noc1C)S(=O)(=O)c1cccs1 | 1.7 | .
O=C(Oc1ccc2ccccc2c1)N1CCOCC1 | -0.55 | .
FC(F)(F)c1cc(N2N=NC3C4CC(C5CCCC54)C32N2CCOCC2)cc(C(F)(F)F)c1 (stereo not given) | . | 0.24
COc1cccc(-n2c(=S)sc3c2nc(SCc2cc(=O)n4cc(Cl)ccc4n2)n2c4ccccc4nc32)c1 | . | -0.35
O=C(Cn1ncc2c([nH]c3ccccc32)c1=O)Nc1ccc(F)cc1F | -0.5 | 0.47
COC(=O)c1cc(C(=O)OC)cc(-n2c(/C=C/c3cccc([N+](=O)[O-])c3)nc3ccccc3c2=O)c1 | . | -0.17
N#C/C(=C(/O)C(F)(F)F)c1nc2ccccc2[nH]1 | 1.4 | -1.3
CN(CCN1CCOCC1)C1CCN(C(=O)CNC(=O)/C=C/c2cccs2)CC1 | 0.3 | -0.82
CCn1c(CN2CCCCC2C)nc2c1c(=O)n(C)c(=O)n2C (stereo not given) | 0.25 | -2.1
O=C(c1ccc(Cl)cc1)c1cc2cc(Cl)cc(Cl)c2o1 | . | -0.41
CCn1c(=O)cc(SCC(=O)N2CCCCC2)c2ccccc21 | 0.05 | 0.46
Cc1nnc(SCc2cccc(C(=O)c3ccccc3)c2)[nH]c1=O | -0.7 | 0.15
O=C(/C=N/Nc1ccccc1)Nc1ccccc1C(=O)O | . | 0.45
COc1ccccc1CNc1ncccc1N1C(=O)CCC1=O | -0.1 | 0.15
CCOc1ccc(S(=O)(=O)Nc2cc(C(=O)OC)cc(C(=O)OC)c2)c2cccnc12 | . | 4
CCS(=O)(=O)CC(C)C | -0.7 | .
Clc1ccc(COc2cccc3cccnc23)cc1 | 2.2 | 3.6
COC(CN(C)S(=O)(=O)c1ccc(Br)cc1)OC | -0.65 | .
CCOC(=O)CSc1n[nH]c2nc3sc4c(c3c(=O)n12)CC(C)(C)OC4 | 0.3 | 1
CN(C1CCCCC1)S(=O)(=O)c1cn(C)c(=O)n(C)c1=O | -0.85 | .
CCNC(=O)c1cccc(OC(C)C)c1 | -0.8 | -0.36
COc1ccc(O)c(/C=N/NC(=O)c2ccccc2NC(=O)c2cccs2)c1 | . | 0.54
NC(=O)CN(CC(N)=O)S(=O)(=O)c1ccccc1 | 1.3 | 0.16
CCOc1cc(C(=O)Nc2c3c(nn2-c2ccc(F)cc2)CSC3)cc(OCC)c1OCC | . | -0.32
O=C(c1ccc(C(=O)N2CCOCC2)s1)N1CCOCC1 | 1.4 | -0.035
O=C(N/N=C1/CCSc2ccc(F)cc21)C1CC1 | 0.55 | .
O=C(c1ccc(Cl)cc1)N1c2ccccc2OC1c1ccc2c(c1)OCO2 (stereo not given) | -1.4 | -0.32
O=C1CC(c2ccc(S(=O)(=O)NCCOc3ccccc3)cc2)CN1 (stereo not given) | 1.4 | -0.97
O=C(N/N=C/c1ccccc1)Nc1ccccc1 | -0.65 | .
Cc1ccc(-c2csc(N=C(N)N)n2)cc1 | . | 0.91
O=S1(=O)CCN=C2C(Cl)=CC(C(F)(F)F)=CN21 | 0.75 | 83
O=C(Cc1ccccc1)Nn1cnc2c(cnn2-c2ccccc2)c1=O | 0.05 | .
Cc1onc(-c2c(Cl)cccc2Cl)c1C(=O)N1CC=CCC1 | -0.25 | 0.18
CCc1c(C)nc2cc(-c3cc(OC)cc(OC)c3)nn2c1NCCCN1CCOCC1 | -0.6 | .

Fetched one by one from the entries so far (3):
SMILES | AID504770 | Ba CapD inh
Cc1ccc(-n2cc3c(n2)CCN(c2ncc(C(F)(F)F)cc2Cl)C3)cc1 | . | 0.045
COc1ccccc1N(Cc1c(C)noc1C)S(=O)(=O)c1cccs1 | 1.7 | .
CC(C)C(NC(=O)c1ccccc1)C(=O)N1CCCCCC1 (stereo not given) | -0.3 | 0.23

Remaining list, next part
SMILES | AID504770 | Ba CapD inh
O=[N+]([O-])c1ccc(S(=O)(=O)N2c3cccc4cccc(c34)S2(=O)=O)cc1 | . | -0.17
CCOC(=O)Cn1c(=O)sc2ccccc21 | -0.85 | .
Cc1nn(-c2ccc(Cl)cc2)c2sc(C(=O)N3CCCCC3)cc12 | 2 | .
Cc1ccc2c(c1)c(=O)c1ccccc1n2CC(=O)Nc1ccc(Cl)c(Cl)c1 | . | 3.8
COc1cc(C(=O)NCC(=O)O)cc(OC)c1OC | . | 0.095
CCCCCCC(=O)Nc1cccc(C(=O)N/N=C/c2ccc(OC(C)=O)c(OC)c2)c1 | . | 0.51
Cc1nc(CSc2ccc(Cl)cc2)cs1 | 2.4 | 0.16
CC(C)(C)C(=O)OCc1nc(-c2ccc3c(c2)OCCCO3)cs1 | 0.1 | 0.46
OC(COC(c1ccccc1)c1ccccc1)CN1CCCCC1 (stereo not given) | -2.1 | .
CCCC(=O)Nc1ccc2[nH]c(=O)[nH]c2c1 | -0.1 | 0.065
Cc1cc(C)n(NC(=S)NCc2cccs2)c(=O)c1C#N | -0.1 | -3
Cc1nccn1-c1ccc(C(F)(F)F)cc1N | 1.7 | 0.005
NC(=O)/C=C\c1ccccc1Oc1ccccc1 | -0.6 | 2
NC(=S)Nc1ccc2c(c1)OCCO2 | -0.3 | .
COc1cccc(-c2nc3ccccc3c(=O)n2NC(=O)COc2ccc(Cl)cc2Cl)c1 | . | 0.42
O=C(NCc1cccnc1)C1c2ccccc2C(=O)N1C1CCCC1 (stereo not given) | 0.85 | 0.16
CCOC(=O)C1=C(C)N=C2SCCC(=O)N2C1c1cccs1 (stereo not given) | . | -0.56
COc1ccc(OC)c(C(O)c2coc3ccc(O)c(CN(C)C)c23)c1 (stereo not given) | 0.7 | 1.1
Cc1nn(-c2ccccc2)c(Cl)c1C(=O)NCc1ccco1 | -0.65 | -0.54
COc1ccc(CNC(=O)C2CC(=O)N(C(C)(C)C)C2)cc1 (stereo not given) | 0.3 | .

Reformatted: 4 of the compounds above
Every second line gives: AID504770 | Ba CapD inh
COCCn1c(SCC(=O)c2ccc3c(c2)CCCN3S(C)(=O)=O)nc2ccccc21
  -0.45 | .
O=C(Oc1cc(=O)oc2c1c(=O)n1c3c(cccc23)CC1)c1ccccc1
  -1.4 | 9.5
O=C(c1ccccc1)N1CCC(O)(c2cccnc2)CC1
  -0.2 | .
CC(=O)Nc1ccc2nc(NC(=O)/C=C/c3ccccc3)sc2c1
  -0.45 | -1.2

Other results follow.
SMILES | AID504770 | Ba CapD inh
O=C1NC(=S)S/C1=C/c1cc(Br)cs1 | . | -0.12
CC(=O)CC1(OC(C)=O)C(=O)N(C)c2ccccc21 (stereo not given) | . | -0.43
CCSc1ncccc1C(=O)N[C@@H](CCSC)C(=O)OC | . | -0.3
COC(=O)c1c(C)oc2ccc(N(C(=O)c3ccncc3)S(=O)(=O)c3cccc([N+](=O)[O-])c3)cc12 | . | -0.36
Cc1ccc(NC2=Nc3ccccc3SC2)cc1 | -1.1 | -0.71
NC(N)=NC(N)=Nc1cc(C(F)(F)F)cc(C(F)(F)F)c1 | . | -0.66
O=C1CCCc2c1[nH]c1ccccc21 | -1.2 | .
Cc1noc(C)c1C(=O)OCC(=O)Nc1ccc(SC(F)F)cc1 | -0.65 | .
O=[N+]([O-])c1ccc(N2CCOCC2)cc1O | . | -1.7
N#C/C(=C\c1cc(Br)c(O)c(Br)c1)C(N)=O | 1.5 | .
COC(=O)c1ccc(NC(=S)N(CC(C)C)CC(C)C)cc1 | 0.15 | 0.36
Cc1ccc(CSc2nc3c(c(N4CCCCC4)n2)CCCC3)cc1 | . | 0.085
CC1(C)Cc2ccccc2/C(=C(/C#N)c2ccccc2)N1 | 0.6 | -0.26
CCCCS(=O)CSc1nc(-c2ccc(OC)cc2)cc(-c2ccccc2)c1C#N (stereo not given) | 2.2 | 1.6
CC1CN(S(=O)(=O)c2cccc(C(=O)OCC(N)=O)c2)CC(C)O1 (stereo not given) | -0.5 | .
C1=Cc2ccccc2N2CC(c3ccc4ccccc4c3)N=C12 (stereo not given) | 0.1 | 2
CC1=C(CC(=O)N(C)Cc2cccc3ccccc23)c2cc(F)ccc2/C1=C\c1ccc(S(C)=O)cc1 (stereo not given) | . | -0.59
COc1ccc(C2=NN3C(C2)c2cc(Br)ccc2OC3c2ccc(C(C)(C)C)cc2)cc1 (stereo not given) | . | -0.37
N#CCSc1ccc(Cl)cc1Cl | . | -0.17
O=C(O)CCCCn1c(=S)[nH]c2ccsc2c1=O | 0.2 | -1
Cc1nc2scc(-c3ccccc3)c2c(=O)n1/N=C/c1ccco1 | 0.25 | .
CCC(Sc1nnc(N)s1)C(=O)Nc1ccc(S(N)(=O)=O)cc1 (stereo not given) | 1.1 | -1.1
Cc1ccc(C(=O)CSc2[nH]c(=O)ncc2C)cc1 | 0.85 | .
CC(C)(C)NCC(O)COc1ccccc1C1CCCC1 (stereo not given) | . | 3
O=C1C=C(SCC(=O)Nc2ccc(Cl)cc2)SC(c2ccccc2)C1 (stereo not given) | -0.3 | -0.05
COc1ccc(NC(=O)C2=C(C)NC(=O)NC2c2ccc(Br)cc2)cc1 (stereo not given) | . | -0.16
Cc1ccc(CSc2nnc3c(n2)[nH]c2ccccc23)cc1 | -0.35 | -0.2
CCOC(=O)N1CCN(C(=O)CN(C2CCCCC2)S(=O)(=O)c2ccccc2)CC1 | -0.3 | -0.015
Fc1ccc2c(c1)CCN2 | . | 2.4
COc1ccc(/C=C2\N=C(c3cccc(Br)c3)OC2=O)c(OC)c1OC | . | 0.44
CC(=O)N1CCC2(CC1)C/C(=N\NC(=S)Nc1ccc(C)cc1)c1cc(O)ccc1O2 | 0.05 | 40
COc1cccc(CC(=O)NN)c1 | . | -0.15
COc1cc(OC)cc(C(=O)N2CCN(c3cccc4[nH]ccc34)CC2)c1 | . | -0.33
CN1C(=O)CC(c2cn(Cc3ccccc3)c3ccccc23)C1=O (stereo not given) | 2.2 | 1.1
CCN(CC)CC(O)CN=C1NS(=O)(=O)c2ccccc21 (stereo not given) | 0.15 | 0.09
CN(C(=O)CSc1n[nH]c(=O)[nH]c1=O)c1ccccc1 | 0.15 | .
C/C(=N\OC(=O)c1ccc(Cl)cc1)c1ccc[nH]1 | -0.35 | -0.8
Cc1ccc(CNC(=O)Cc2noc3ccccc23)cc1 | 1.4 | 0.18
Cc1ccc(C2=NN(C(=O)c3ccncc3)C(c3ccccc3F)C2)cc1 (stereo not given) | . | -0.11
CC(=O)Nc1ccc(Cl)cc1C(F)(F)F | -0.35 | 0.19
COc1ccc(C2Nc3ccccc3NC3=C2C(=O)CC(c2ccc(OC)c(OC)c2)C3)cc1O (stereo not given) | . | -1.4
N/C(=N\NC(=O)Nc1ccccc1)c1ccc(C(F)(F)F)cn1 | 1.9 | -0.83
O=C(Nc1ccccc1Cl)Nc1ccccc1Cl | 0.5 | 0.27

Screens deposited in PubChem BioAssay by ICCB-Longwood Screening Facility, Harvard Medical School.
